# Tgondii IFNg = blocks Toxoplasma gondii growth in the presence of IFN-gamma; Toxoplasma gondii growth in IFN-gamma-treated host cells; hits give low values; reference of the scale not given here; activity change, negative = inhibition, %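 (about 20 µM by stock and volumes)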; hit rate 3.8% among 69,000; AID 1259416;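 active = below -70%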;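 note: host cells are HeLa cells infected with Toxoplasma gondii; parasite growth read as luciferase light; one replicate is shown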
# Starred values were filed as active, the others as inactive; i = inactive. An excerpt (hit frequency here may not be typical).
Molecule,Tgondii IFNg
COc1ccc2c3c([nH]c2c1)[C@@H](CO)N(C(=O)c1cccnc1)CC31CN(C(=O)Nc2cccc(F)c2)C1,-24
O=C(Cn1c(=O)cc(C(=O)N2CCCCC2)c2ccccc21)Nc1ccc(F)cc1,6
O=C1CCC2(CCCO2)CCN1Cc1noc(-c2ccco2)n1 (stereo not given),-3
Cc1ccc(NC(=O)CN2C(=O)CCc3cc(S(=O)(=O)N4CCCCC4C)ccc32)cc1N(C)C (stereo not given),-103*
Cc1nn(CC(=O)NCCCN(C)C)c(=O)c2nc(-c3ccccc3)sc12,165
Cc1cc(C)n(Cc2nc(-c3ccc(NC(=O)c4cccs4)cc3)oc2C)n1,-25
CN1C(=O)c2cc(NC(=O)Cc3cccs3)ccc2OC[C@H]2O[C@@H](CC(=O)NCCCN3CCOCC3)CC[C@@H]21,13
CO[C@@H]1CN(C)C(=O)c2cc(NC(=O)C3CCCCC3)ccc2OC[C@@H](C)N(Cc2cccnc2)C[C@@H]1C,28
COc1ccc(C(=O)Nc2ccc(-c3nc(-c4ccc(C)cc4C)co3)cc2)cc1,18
CC(C)C#Cc1ccc([C@@H]2[C@H]3CN(S(=O)(=O)c4ccccc4)CC(=O)N3[C@H]2CO)cc1,-38
Cc1[nH]nc2oc(=O)c(CC(=O)O)c(C)c12,-31
CO[C@H]1CN(C)C(=O)c2cc(NC(=O)Cc3ccccc3)ccc2OC[C@H](C)N(C(=O)c2ccccc2F)C[C@@H]1C,109
C[C@@]12CCc3occc3[C@H]1CC[C@@]13C[C@@H](CC[C@H]12)[C@@](O)(CO)C3,9
CC(C)NC(=O)COc1cccc(-c2nc(Nc3ccc4[nH]ncc4c3)c3ccccc3n2)c1,-76*
CS(=O)(=O)N(CC(=O)N1CCN2CCCC2C1)c1cccc(F)c1 (stereo not given),97
C[C@H]1CN([C@@H](C)CO)C(=O)c2cccc(NC(=O)c3ccc(-c4nccs4)cc3)c2O[C@@H]1CN(C)C(=O)Nc1ccc(C(F)(F)F)cc1,-80*
COC(=O)c1cc2n(n1)CCN(C(=O)c1ccc(Cl)s1)C2,1
Cc1ccc(C)c(-c2coc(-c3ccc(NC(=O)Nc4ccc(C)c(F)c4)cc3)n2)c1,1
CC(C)CCN1C2(CCN(Cc3nccs3)C2)c2ccccc2S1(=O)=O (stereo not given),-96*
O=C(c1ccc2c(c1)OCO2)N1Cc2cnn(CCO)c2C1,4
O=C(c1cccc(F)c1)N1CCCn2nnc(Cn3cccn3)c2C1,8
CCC(C)N(Cc1ccncc1)Cc1ccc2c(C)cc(=O)oc2c1 (stereo not given),4
CNC(=O)c1ccc(-c2nc(CN3CCN(S(=O)(=O)c4c(C)cc(C)cc4C)CC3)c(C)o2)cc1,-96*
CC1CCCCN1C(=O)Cn1c(=O)n(C)c2ncccc21 (stereo not given),-1
Cc1cc(NC(=O)CN2CCC3(CCC2=O)CC(=O)c2ccccc2O3)nn1C (stereo not given),97
CCc1nnc(NC(=O)CN2CCN(c3ccccc3)CC2)s1,-68
CS(=O)(=O)NCCNCC(=O)Nc1ccc(Cl)cc1F,-2
C[C@H]1C[C@H]2CN(C(=O)c3ccc4c(c3)OCO4)C[C@H]2O1,24
CCN1CCN(CCCNC(=O)C2=C(C)C(=O)OC23CCN(S(=O)(=O)CC)CC3)CC1,30
Cc1[nH]c2c(c1C(=O)N1CCCC3(CN(C)C(=O)O3)C1)C(=O)CCC2 (stereo not given),-46
CCc1cnc(N2CCC3(CCN(C(=O)c4cnccn4)CC3)C2)nc1,10
O=C(Cc1cccc(F)c1)N1CCC2(CC1)CC(N1CCCC1)CO2 (stereo not given),44
CCOC(=O)c1noc(C)c1-c1csc(CS(=O)(=O)c2ccc(Cl)cc2)n1,18
CCN(Cc1cccc(C)n1)Cc1nc(COC)no1,0
COc1ccc(NC2CCCN(c3cnc4ccccc4n3)C2)cc1 (stereo not given),i
C=C1CCC2C(CC2(C)C)C(=O)CCC1O (stereo not given),11
CN1CCN(c2cc(-c3cccnc3)nc3ccccc23)CC1,-16
CCS(=O)(=O)N1CC2(CN(CC3CCOCC3)[C@H](CO)c3c2c2ccc(OC)cc2n3C)C1,-48
CO[C@H]1CC[C@@H]2CCOc3c(C#N)cccc3C(=O)N(C)CC3(CCCCC3)CC(=O)N(C)C[C@H]1O2,-55
COc1ncccc1-c1nc2ccccc2n1CCO,36
CCC(=O)N1CCc2c([nH]c3ccccc23)C12C(=O)Nc1ccc(Br)cc12 (stereo not given),-48
Cc1nc(-c2ccc(Cl)cc2)sc1CCNC(=O)C(=O)Nc1ccc(F)cc1,72
CCOC(=O)c1sc(-c2ccccc2)nc1OC(=O)c1ccc(C(F)(F)F)cc1,-12
CCCC(=O)NCCn1nc(-c2ccccc2F)cc1CN(C)C,-10
Cc1ccc(-n2cc(CNCCN3CCNC3=O)c(-c3cccc(C)c3)n2)cc1,-14
Fc1cnc(N2CCC3(CC2)CC(N2CCOCC2)CO3)nc1 (stereo not given),-1
CCN(CC)C(=O)c1cn(-c2ccccc2)nc1C12CC3CC(CC(C3)C1)C2,-4
Cc1ccccc1NC(=O)CC(=O)N[C@H](C)c1ccccc1,-1
CCCCN(CCCC)C(=O)c1cc2cccnc2n(Cc2ccccc2F)c1=O,53
CN1CCN(C(=O)c2cc3ccc(-c4ccccc4)cn3c2-c2cocn2)CC1,32

# Continued:
Molecule,Tgondii IFNg
CCCc1nc(NC[C@@H]2CCCO2)c2cnn(C)c2n1,-13
COc1ccc2[nH]cc(C3N4CC5(C)CN3CC(C)(C4)C5=O)c2c1 (stereo not given),11
O=C(C[C@@H]1CC[C@H]2[C@@H](COC[C@@H](O)CN2CC2CCOCC2)O1)NCC1CCCCC1,-40
O=C(c1ccccn1)N1CC2(C1)[C@H](c1ccccc1)[C@H](CO)N2C(=O)C1CCCCC1,42
NC1(C(=O)O)CCN(Cc2ccc(Oc3ccccc3)nc2)C1 (stereo not given),1
O=C(Nc1ccccc1Cl)N1CC[C@H]2CN(Cc3ccncc3)S(=O)(=O)[C@@H]2CC1,-14
c1csc(-c2cc(N3CCOCC3)c3ccccc3n2)c1,-17
N#C[C@H]1[C@@H](c2ccccc2C2=CCCC2)[C@H](CO)N1S(=O)(=O)c1cccc(F)c1,-37
Cc1ccc([N+](=O)[O-])cc1NC1OC(CO)C(O)C1O (stereo not given),-1
Cc1ccsc1CN1CC[C@H]2C[C@@H](c3nnc(C4CC4)o3)O[C@H]2C1,-15
Cc1ccccc1OCCn1c(C)nc2ccccc21,-35
COc1ccc(OC)c(NC(=O)CN2C(=O)CCc3cc(S(=O)(=O)N4CCCCC4)ccc32)c1,-1
COc1ccccc1NC(=O)CSCc1nc2ccccc2c(=O)[nH]1,-20
COc1ccc(S(=O)(=O)N2CCCC3(CN(C(C)=O)Cc4cc(C)ccc4O3)C2)cc1 (stereo not given),-41
Nc1cc(Cl)c(-n2cccc2)cc1Oc1ccc(Cl)cc1,15
C[C@H]1CN([C@@H](C)CO)C(=O)c2cccc(NC(=O)NC3CCCCC3)c2O[C@@H]1CN(C)Cc1ccc(C(F)(F)F)cc1,-53
Cc1cccc(CNC(=O)c2nc(Nc3cccc(C)c3)c3ccccc3n2)c1,-89*
Cc1oc(-c2ccccc2)nc1Cn1nnc(-c2nc(-c3ccccc3Br)no2)c1C,9
O=C(c1cccc(Cl)c1)N1CCN2C[C@H](OCC3CC3)C[C@@H]2C1,1
Cc1nc(CCc2nc3ccccc3[nH]2)cc(NC(CN2CCOCC2)c2ccccc2)n1 (stereo not given),10
O=C(NCC1CC1)C1CCC2(CCN(C(=O)C3CCOCC3)CC2)O1 (stereo not given),2
COc1cc(/C=C(\C#N)C(=O)N2CCc3ccccc32)ccc1O,33
c1ccc(-c2nc[nH]c2-c2cccn2-c2ncccn2)cc1,0
CN1CCN(S(=O)(=O)c2cc(C(=O)O)cc(-c3cc(F)ccc3F)c2)CC1,4
N[C@@H](CC(=O)OCc1ccccc1)C(=O)OCc1ccccc1,-11

# The listing continues:
canonical_smiles | Tgondii IFNg
O=C1OC(Nc2ccc3c(c2)OCO3)c2ccccc21 (stereo not given) | 80
CN(C)Cc1cc(=O)n2c(n1)CN(CC1CC1)CCC2 | -13
CCOc1ccc(N2C=Nc3ccc(OCC)cc3C2)cc1 | -16
C/C=C/c1cccc(-c2nc(C(=O)NCCN3CCCCC3)cc3c2[C@H](CCO)N([S@@](=O)C(C)(C)C)C3)c1 | -21
Cc1nc(-c2ccc(F)cc2)sc1CCNS(=O)(=O)c1ccccc1F | 79
O=C(Nc1cnc2n1CCCC2)c1csc(-c2cccs2)n1 | 41
CCn1c2ccccc2c2cc(-c3nccn3C(C)c3nncn3C)ccc21 (stereo not given) | -11
COc1ccccc1OC(C)C(=O)Nc1sc(Cc2ccccc2)c(C)c1C(N)=O (stereo not given) | -51
C[C@@H]1CCCCO[C@H](CN(C)Cc2ccc3c(c2)OCO3)[C@H](C)CN([C@H](C)CO)C(=O)c2cc(NS(=O)(=O)c3cn(C)cn3)ccc2O1 | 79
CCn1c(C2CCCN(Cc3cnccc3C(F)(F)F)C2)n[nH]c1=O (stereo not given) | 63
Cc1cc(C)n(CCCN(C)Cc2cnn(-c3ccc(Cl)cc3)c2)n1 | 20
CCn1nnc2c1CCN(Cc1c(C)noc1C)C2COC (stereo not given) | 1
Cc1cnc(CNCC(=O)Nc2cnccn2)cn1 | -46
Cc1nn(C)c(Cl)c1S(=O)(=O)N1CCC(c2nnc3n2CCCCC3)CC1 | 1
O=C(CCC1Nc2c3ccccc3nc(=S)n2C1=O)NCc1ccc2c(c1)OCO2 (stereo not given) | -4
COc1ccc(-c2nc(N(C)c3ccc(F)cc3)c3ccccc3n2)cc1 | -11
COc1ccccc1NC(=O)NCC1CCCN(Cc2cnc[nH]2)C1 (stereo not given) | 13
Cc1noc(C)c1NC(=O)Nc1cccc2c1O[C@@H](CN(C)Cc1ccc(C(=O)Nc3ccccc3N)cc1)[C@@H](C)CN([C@H](C)CO)C2=O | 12
CCN(CC)CCOC(=O)c1cc(Cl)c(N)cc1OC | -5
CCS(=O)(=O)Nc1ccc2c(c1)C(=O)N(C)[C@@H]1CC[C@H](CC(=O)N3CCN(C)CC3)O[C@@H]1CO2 | -20
Cn1cc(C(=O)N2CCOC(c3nc(Cc4cccc(C(F)(F)F)c4)no3)C2)cn1 (stereo not given) | -25
Cc1[nH]c(-c2ccccc2)nc1C(=O)N1CCC(O)(CN(C)C)C1 (stereo not given) | 0
Cc1n[nH]c(C)c1Cc1n[nH]c(=O)n1[C@H](C)c1ccc(F)cc1 | -7
O=C(NCC(c1cccnc1)c1c[nH]c2ccccc12)Nc1ccc(F)cc1F (stereo not given) | 94
OCc1cc2ccccc2nc1-c1ccc2c(c1)OCCO2 | 4
COc1ccc(Cl)cc1NC(=O)NCC(c1cccnc1)c1c[nH]c2ccccc12 (stereo not given) | 74
COc1ccc(-c2ccc([C@@H]3[C@H](C#N)N(C(=O)NC(C)C)[C@H]3CO)cc2)cc1 | 10
Cn1c(=O)c(-c2nc(-c3cccc(Cl)c3)no2)c(O)c2ccccc21 | 15
CCN1C[C@@H]2C3(CCN(S(=O)(=O)C4CC4)CC3)CC[C@]2(C(=O)N2CCCC2)C1 | -8
CO[C@@H]1CN(C)C(=O)c2ccc(NC(=O)Nc3ccccc3)cc2OC[C@H](C)N(C(=O)CC2CC2)C[C@H]1C | 42

# Retrieved by structure from the entries so far, 7 records:
canonical_smiles | Tgondii IFNg
Cc1n[nH]c(C)c1Cc1n[nH]c(=O)n1[C@H](C)c1ccc(F)cc1 | -7
Cn1c(=O)c(-c2nc(-c3cccc(Cl)c3)no2)c(O)c2ccccc21 | 15
COc1ccc(Cl)cc1NC(=O)NCC(c1cccnc1)c1c[nH]c2ccccc12 (stereo not given) | 74
CO[C@@H]1CN(C)C(=O)c2ccc(NC(=O)Nc3ccccc3)cc2OC[C@H](C)N(C(=O)CC2CC2)C[C@H]1C | 42
Cn1cc(C(=O)N2CCOC(c3nc(Cc4cccc(C(F)(F)F)c4)no3)C2)cn1 (stereo not given) | -25
Cc1[nH]c(-c2ccccc2)nc1C(=O)N1CCC(O)(CN(C)C)C1 (stereo not given) | 0
CCN1C[C@@H]2C3(CCN(S(=O)(=O)C4CC4)CC3)CC[C@]2(C(=O)N2CCCC2)C1 | -8

# The main list resumes, starting five compounds before the break.
canonical_smiles | Tgondii IFNg
COc1ccc(Cl)cc1NC(=O)NCC(c1cccnc1)c1c[nH]c2ccccc12 (stereo not given) | 74
COc1ccc(-c2ccc([C@@H]3[C@H](C#N)N(C(=O)NC(C)C)[C@H]3CO)cc2)cc1 | 10
Cn1c(=O)c(-c2nc(-c3cccc(Cl)c3)no2)c(O)c2ccccc21 | 15
CCN1C[C@@H]2C3(CCN(S(=O)(=O)C4CC4)CC3)CC[C@]2(C(=O)N2CCCC2)C1 | -8
CO[C@@H]1CN(C)C(=O)c2ccc(NC(=O)Nc3ccccc3)cc2OC[C@H](C)N(C(=O)CC2CC2)C[C@H]1C | 42
CN(Cc1cc2n(n1)CCNC2)Cc1nc2ccsc2c(=O)[nH]1 | 0
Cc1cc(N2CCN([C@@H]3CN[C@H](C(=O)N4CCSC4)C3)CC2)n(-c2ccccc2)n1 | 10
COCc1ncc(CN(C)Cc2cnn(-c3ccccc3)c2)cn1 | -30
COc1cccc(C(=O)CSc2nccn2C)c1 | 68
O=C(Nc1ccccc1SCCS(=O)(=O)c1ccc(Cl)cc1)c1cccs1 | 3
CCS(=O)(=O)NCC[C@@H]1CC[C@H](NC(=O)Nc2cc(Cl)cc(Cl)c2)[C@@H](CO)O1 | 41
COc1ccc(N(Cc2nc(-c3ccc(C)cc3)oc2C)S(=O)(=O)c2ccc(C)cc2)cc1 | 11
CC(C)n1c2ccccc2c2c1cc(C(=O)N(C)Cc1ccccn1)n2-c1ncccn1 | -15
CCOC1C2CCC1N(C(=O)c1cscn1)C2 (stereo not given) | -1
CCC(=O)N1[C@H](CO)[C@H](c2ccc(C#CC3CCCCC3)cc2)[C@@H]1CNC(C)C | -24
Cc1ccc(C2(CN3CCC(NC(=O)CCc4n[nH]c(=O)[nH]c4=O)CC3)CCCC2)cc1 | 18
CN(C)S(=O)(=O)c1ccc2c(c1)cc(C(=O)NCCc1ccc(Cl)cc1)n2Cc1ccncc1 | 1
C[C@@H]1CN([C@@H](C)CO)C(=O)c2cc(NC(=O)NC3CCCCC3)ccc2O[C@H]1CN(C)S(C)(=O)=O | 35
CCCNC(=O)c1cc(-c2ccn(CC3CC3)n2)n2ccccc12 | -60

# Assay outcomes (PubChem)
